TRPV1 potentiator: human TRPV1 potentiation | TRPV1-expressing cells, Fluo-8 calcium influx, capsaicin EC20 potentiation; host cell line not named in the record; control for the full effect not named in the record | potentiation, % at 8.33 µM | 0.02% of 320,000 active; active means potentiation above 80%; inconclusive means 30% to 80%; inactive means below 30%; note: 0% is about no effect
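Fluo-8 calcium influx in TRPV1-expressing cells, kinetic read (ex 480/em 520 nm). Compound added and read 3 min for agonist activity, followed by capsaicin at EC20 final and 2 min further read for enhancement.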
Six1-Eya2 blk: inhibitors of human Six1/Eya2 interaction; AID 651725; AlphaScreen GST-Six1/His-Eya2 binding, biochemical; stronger effect = lower value; control for the full effect not named in the record; Q15475+O00167; activity change, % (no concentration beside the values); 0.56% of 360,000 active; in the data active = activity change below about -65%; inconclusive = about -30% to -65%; inactive = above about -30%; note: % is set by controls: 0 for no effect and ±100 for the full control effect; compound concentration not given in the record
Target sequence (O00167 whole entry, looked up): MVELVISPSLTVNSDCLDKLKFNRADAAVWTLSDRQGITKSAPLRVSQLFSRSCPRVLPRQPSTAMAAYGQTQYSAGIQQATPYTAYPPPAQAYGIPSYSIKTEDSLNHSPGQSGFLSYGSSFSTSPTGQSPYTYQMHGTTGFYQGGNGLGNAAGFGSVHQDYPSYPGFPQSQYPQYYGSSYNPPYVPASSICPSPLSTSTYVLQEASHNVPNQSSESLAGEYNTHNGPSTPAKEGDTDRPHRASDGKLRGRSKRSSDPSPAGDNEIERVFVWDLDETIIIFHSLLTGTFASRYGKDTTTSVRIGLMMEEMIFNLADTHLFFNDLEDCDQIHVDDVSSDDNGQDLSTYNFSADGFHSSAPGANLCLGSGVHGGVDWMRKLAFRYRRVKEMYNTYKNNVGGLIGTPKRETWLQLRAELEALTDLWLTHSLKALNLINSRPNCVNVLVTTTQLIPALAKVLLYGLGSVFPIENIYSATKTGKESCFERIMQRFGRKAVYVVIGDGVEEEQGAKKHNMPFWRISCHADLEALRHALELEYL
Target sequence (Q15475 whole entry, looked up): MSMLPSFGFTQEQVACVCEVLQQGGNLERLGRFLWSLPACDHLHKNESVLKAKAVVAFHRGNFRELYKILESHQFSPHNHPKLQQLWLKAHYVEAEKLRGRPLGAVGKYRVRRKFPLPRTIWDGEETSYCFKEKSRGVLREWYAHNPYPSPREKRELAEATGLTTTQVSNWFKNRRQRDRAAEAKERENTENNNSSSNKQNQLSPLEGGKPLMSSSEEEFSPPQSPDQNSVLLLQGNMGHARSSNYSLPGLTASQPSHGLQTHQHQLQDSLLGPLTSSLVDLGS
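Six1/Eya2 binding was read as AlphaScreen signal after compounds were pinned into GST-Six1 plus His-tagged Eya2 (5X stock 250/500 nM) in pH 8.0 Tris/NaCl/TCEP buffer, beads added, then incubated 1 h, 37 C, dark.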
PINK1 expr mod: changes PINK1 expression | PINK1 immunofluorescence, high-content cytometry, 24 h | Potency, µM (highest dose often 76.6 µM), without a hit: at the top dose activation (PINK1 increase), actives largely listed as activators | 0.2% of 410,000 active; active = well fitted activation curve with a large enough effect; inconclusive = small, poorly fitted or top-dose-only effect; inactive = flat fitted curve, though single readings scatter; cell line not stated here;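 note: potency is the fitted concentration of half-maximal effect; % of control where 0% means no effect; nearly all actives have a fitted effect of over 65% in size; a mitochondrial uncoupler was the plate control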
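A stable cell line was treated with compounds at 5 concentrations for 24 hours, with CCCP as control. PINK1 levels and mitochondrial localization were measured by immunofluorescence with mitochondrial, cell and nuclear markers after fixation, read by laser-scanning cytometry.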
Sfp inh: inhibitors of Bacillus subtilis Sfp phosphopantetheinyl transferase; AID 1490; Potency, µM, without a hit: max response, negative = inhibition, most hits filed as inhibitors; Biochemical Sfp PPTase activity, qHTS; Q9F4F7; 3.5% of 310,000 active; active = well fitted inhibition curve with a large enough effect; inconclusive = small, poorly fitted or top-dose-only effect, or another doubt; inactive = no such curve, though single readings can be large or run the other way;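 note: the enzyme is Sfp with the accession as filed and its product quenches rhodamine fluorescence; potency is the fitted concentration of half-maximal effect; 0% = enzyme reaction without inhibitor and -100% = no enzyme wells; top concentration of the series not given in the record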
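After 15 min at room temperature with compound, 15 nM Sfp received 5 uM rhodamine-CoA plus 12.5 uM BHQ-2-ybbR (50 mM Hepes pH 7.6, 10 mM MgCl2). Rate came from the fluorescence difference over 30 min, ex 525/em 598 nm.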
D2 PAM: human D2 receptor positive allosteric modulation; P14416; DiscoveRx D2 beta-arrestin cells, luminescence, 90 min; 100% = 57 uM dopamine signal; potentiation, % (test concentration not listed); 0.23% of 360,000 active; active = potentiation of 50% or more; inconclusive = 30% to 50%; inactive = 30% or less;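 note: compound concentration not given in the record; tested on top of an EC20 dose of dopamine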
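PathHunter beta-arrestin assay in DiscoveRx D2 cells. Compounds were added with an EC20 of dopamine (50 nM final) for 90 min at 37 deg C. Luminescence was read 1 h after detection reagent, with 57 uM dopamine as the EC100 control.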
D2 agonist: activates the human D2 dopamine receptor. P14416. DiscoveRx PathHunter D2 beta-arrestin, luminescence, 90 min; 100% = 57 uM dopamine signal. activation, % (concentration not given with the values). 0.084% of 360,000 active. AID 624465; in the data active = activation above about 40%; inconclusive = about 15% to 40%; inactive = below about 15%; note: compound concentration not given in the record; the text of the record calls up to 30% inactive
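Agonist mode: compounds alone added to overnight-plated D2 PathHunter cells for 90 min at 37 C, with 57 uM final dopamine (EC100) defining full response. Beta-arrestin recruitment detected by chemiluminescent reagent, read after 1 h at ambient temperature.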
CtBP-E1A blk: CtBP/E1A binding inhibition; AlphaScreen GST-E1A/His-CtBP binding, 1536-well; stronger effect = lower value; control for the full effect not named in the record; activity change, % (concentration not given with the values); 0.49% of 340,000 active; in the data active means activity change below about -65%; inconclusive means about -30% to -65%; inactive means above about -30%; note: % is set by controls: 0 for no effect and ±100 for the full control effect
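Steps: dispense buffer (Tris pH 8.0, NaCl 300 mM, TCEP 1 mM, BSA, Tween 20); add 5X protein mix (GST-E1A, His-CtBP, 125 nM each); pin 23 nL compound; 2 h at 37 °C, dark; add 5X beads (50 ug/mL); 1 h; read.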
An asterisk follows results filed as active; ? = inconclusive; nt = not tested or not shown; [ ] = another dose, or the depositor's remark. Compounds as they come; about 3.7% have a hit in one of these screens.

SMILES	TRPV1 potentiator	Six1-Eya2 blk	PINK1 expr mod	Sfp inh	D2 PAM	D2 agonist	CtBP-E1A blk
C=CCNC(=O)CN1CCN(Cc2ccc3c(c2)OCO3)CC1	-6	11	0.2%	-6%	-19	-4.3	-12
N#CC1=C(S)N(c2ccccc2)C(c2ccc(-c3cccc(Cl)c3)o2)NC1=O (stereo not drawn)	30	-4	0.9%	28µM*	-15	-11	nt
O=C(N/N=C/c1ccccc1)c1[nH]ncc1Br	-13	3	0.7%	14%	-3	5.6	nt
CC(C)(C)[C@@H]1COC(=O)[C@H](Cc2ccc(F)cc2)C/C=C\C[C@@H](CC(=O)N(CCO)Cc2ccccc2)C(=O)N1	nt	8	3.1%	nt	-1	0.7	1
COc1ccc(/C=C(\NC(=O)c2ccccc2)C(=O)N2CCCCC2)cc1OC	?	-3	1.6%	5%	-5	5.7	nt
CCOc1cc(/C=C2\SC(=N)N(c3nonc3N)C2=O)ccc1OCCN1CCOCC1	-5	-27	0.3%	-6%	13	2.7	nt
O=C(CCCc1c[nH]c2ccccc12)NCc1cccs1	-24	0	-0.6%	13%	-5	-18	4
COCCCN(CCNC(=O)c1ccc(NC2=NC3CS(=O)(=O)CC3S2)cc1)Cc1ccco1 (stereo not drawn)	23	2	-0.2%	18%	-5	-3.8	1
Cc1occc1C(=O)Nc1cccnc1	3	-1	-0.4%	-9%	-6	-0.8	8
O=C(COc1ccc([N+](=O)[O-])cc1)N(C1CCCCC1)C1CCS(=O)(=O)C1 (stereo not drawn)	15	3	0.0%	nt	2	1.8	-6
O=C(NNc1cccc(Cl)c1)c1cccnc1Cl	-6	0	2.1%	-2%	-5	-5.8	nt
Cc1cc(NS(=O)(=O)c2ccc(NC(=O)c3ccc(Cl)cc3[N+](=O)[O-])cc2)no1	27	0	-1.8%	3%	?	-4.6	1
CC1CCN(C(=O)CCc2ccc(S(=O)(=O)NC(C)(C)C)cc2)CC1	-11	6	nt	13%	6	0.4	7
C#CCN1C(=O)C2(OCCO2)c2ccccc21	0	0	0.4%	5%	4	2.0	2
CCOC(=O)c1cccc(P(C)(C)=O)c1	7	11	2.5%	18%	-11	3.9	9
COc1ccc(C)cc1NC(=O)c1cccc(-c2ccc(OC(C)=O)cc2)c1	-3	-2	6.9%	12%	-10	-5.0	1
COc1cc(-c2nc3cnccc3n2C)cc(OC)c1OC	2	-3	5.3%	1%	-6	-6.3	-4
O=C1CC(C(=O)O)(c2ccccc2)c2cccc(F)c21 (stereo not drawn)	1	-14	-0.4%	0%	-8	-1.0	-4
O=C(NCc1nc(-c2ccc(C(F)(F)F)cc2)no1)c1cccs1	1	10	3.9%	-25%	-4	-5.0	8
CCCCOC(=O)C1CCC[C@@H](C)N1 (stereo partly drawn)	3	1	1.4%	18%	-5	-4.7	3

Arranged by value in D2 PAM (high to low): 5 of the compounds above.
SMILES | D2 PAM
C#CCN1C(=O)C2(OCCO2)c2ccccc21 | 4
O=C(COc1ccc([N+](=O)[O-])cc1)N(C1CCCCC1)C1CCS(=O)(=O)C1 (stereo not drawn) | 2
O=C(NCc1nc(-c2ccc(C(F)(F)F)cc2)no1)c1cccs1 | -4
O=C(CCCc1c[nH]c2ccccc12)NCc1cccs1 | -5
Cc1occc1C(=O)Nc1cccnc1 | -6

Some of the entries above in another layout:
| Molecule | TRPV1 potentiator | Six1-Eya2 blk | PINK1 expr mod | Sfp inh | D2 PAM | D2 agonist | CtBP-E1A blk |
| --- | --- | --- | --- | --- | --- | --- | --- |
| CCOC(=O)c1cccc(P(C)(C)=O)c1 | 7 | 11 | 2.5% | 18% | -11 | 3.9 | 9 |
| COc1ccc(C)cc1NC(=O)c1cccc(-c2ccc(OC(C)=O)cc2)c1 | -3 | -2 | 6.9% | 12% | -10 | -5.0 | 1 |
| COc1cc(-c2nc3cnccc3n2C)cc(OC)c1OC | 2 | -3 | 5.3% | 1% | -6 | -6.3 | -4 |

Remaining list, next part
SMILES	TRPV1 potentiator	Six1-Eya2 blk	PINK1 expr mod	Sfp inh	D2 PAM	D2 agonist	CtBP-E1A blk
CCOC(=O)C1C(=O)C=C(C)C(C(=O)OCC)C1c1cccc([N+](=O)[O-])c1 (stereo not drawn)	7	-5	-0.5%	-5%	0	5.4	-6
COc1cc(OC)cc(-c2nc3ccccc3c(=O)n2OC(=O)c2ccc(C)c(C)c2)c1	7	-8	11%	6%	5	12	-10
C/C(=N\NC(=O)OC(C)(C)C)c1cccc([N+](=O)[O-])c1	-3	-8	12%	7%	2	-0.4	5
CC(=O)Oc1ccccc1C(=O)Oc1ccc(/C=N/n2cnnc2)cc1	6	?	-4.5%[38.3 µM]	-8%	-12	-3.2	-9
Cc1ccccc1Cn1c2ccccc2c2cnn(CC(=O)NCCCN3CCN(C)CC3)c(=O)c21	27	-1	-0.1%	-14%	-15	-4.6	-15
Cc1onc(C(=O)Nc2cccc(C(F)(F)F)c2)c1[N+](=O)[O-]	-22	-6	-0.3%	6%	-37	13	3
O=C(Nc1ccccc1)c1cccc(N2C(=O)C3C4C=CC(C5CC45)C3C2=O)c1 (stereo not drawn)	-37	2	0.7%	6%	-2	2.3	-1
CCOc1ccc(NC(=O)CNC(=O)c2ccc([N+](=O)[O-])cc2)cc1	7	1	4.0%	0%	12	8.9	8
C=CCNC(=O)c1ccc(NC(=O)C2=CSCCO2)cc1	1	5	2.6%	14%	-10	-3.1	nt
Cc1ccccc1NC(c1cccc(Cl)c1)c1nnnn1C1CCCCC1 (stereo not drawn)	-5	2	?	3%	9	-5.8	1
Cc1ccc(S(=O)(=O)N(C)Cc2nc(-c3ccccn3)no2)cc1	2	-3	2.1%	5%	-1	-2.6	-1
CC(=O)NC1(C(F)(F)F)NC(=O)N(CCc2ccccc2)C1=O (stereo not drawn)	1	-17	1.3%	1%	15	8.8	nt
CCC(=O)N(C)/C=C1\Sc2ccccc2C1=O	?	-1	-1.0%	-10%	10	-2.0	2
O=C(CCCN1C(=O)/C(=C\c2ccccc2)SC1=S)Nc1ccc(C(=O)O)cc1	-5	-16	0.0%	7%	-6	1.7	-27
COc1ccc(COCC(O)CN2CC(C)OC(C)C2)cc1OC (stereo not drawn)	6	4	7.0%[38.3 µM]	8%	-5	-1.4	2
Cn1c(=O)c(/C=C/c2ccc(F)cc2)nc2ccccc21	-6	21	2.4%	-16%	-9	-1.8	3
NC(=O)CC(NC(=O)Cc1ccc(Br)cc1)c1ccc(NC2CCC2)c([N+](=O)[O-])c1 (stereo not drawn)	6	-13	0.5%	-17%	-8	-2.9	-12
CC(=O)c1ccc(NC(=O)[C@@]2(CC(=O)O)CC(/C=C/c3ccccc3)=NO2)cc1	-7	0	0.2%	0%	-8	-9.9	-3
CC1CC(C)CN(C(=O)c2cccc(S(=O)(=O)N(C)c3ccccc3)c2)C1 (stereo not drawn)	-14	5	2.7%	nt	3	-1.3	1
CN(C)C(=O)c1cccc(-c2cccc(-c3nc(C(=O)NCc4ccccc4)cc4c3[C@H](CCO)N(S(=O)C(C)(C)C)C4)c2)c1 (stereo partly drawn)	nt	-6	-0.9%	nt	1	2.5	1
CCOC(=O)c1[nH]cnc1N=Nc1c(O)ccc2ccccc12	9	-82*	2.6%	14%	20	10	-70*
C=CCn1c(SCc2nc3ccccc3[nH]2)nnc1-c1ccncc1	0	1	?	14%	-10	0.7	-21
CN(C)c1ccc(S(=O)(=O)NCC(=O)NCCC2=CCCCC2)cc1[N+](=O)[O-]	-20	0	2.1%	nt	-32	-3.5	-1
COc1ccc(CCn2c(=N)c(S(=O)(=O)c3ccc(C)cc3)cc3c(=O)n4ccccc4nc32)cc1	10	1	?	20%	-6	0.7	nt
Cc1cccn2c(CN(C)CC3CCCCO3)c(C(=O)N3CCCCC3)nc12 (stereo not drawn)	2	1	-0.5%	2%	-6	0.6	9
CC(C)=C(NC(=O)c1ccccc1)C(=O)NCCCC(=O)O	11	4	7.7%[38.3 µM]	-9%	-4	0.8	-4
COc1ccc(C(=O)N/N=C/c2cccc3cccnc23)cc1	-6	-90*	-1.3%	14%	-12	-2.3	-93*
C[C@@H](OC(=O)N1CCCCC1)[C@H]1O[C@]2(C)CCCC[C@H]1O2	2	2	-0.3%	nt	-6	-0.5	2
CCN1CCN(c2ncc(C(=O)Nc3cc(Cl)ccc3OC)c3ccccc23)CC1	-10	-1	-1.7%	-13%	-10	-4.3	-28
COc1ccc(CC(=O)Nc2ccccc2C(=O)N2CCOCC2)cc1	-4	2	-0.7%	1%	-7	0.0	1
CCCCn1nnnc1C(c1cc2ccccc2o1)N1CCN(CCN(C)C)CC1 (stereo not drawn)	nt	7	-0.6%	nt	nt	nt	2
CCOC(=O)C1CCN(C2=NC(=O)/C(=C/c3ccc(OC)c(OC)c3)S2)CC1	-12	-2	0.3%	-8%	6	-1.5	nt
Cc1ccc(S(=O)(=O)N2CCC(CN3C(=O)c4cccc5cccc(c45)C3=O)CC2)cc1	-3	-8	-2.3%	6%	10	-0.6	-5
Cc1cc(NC(=O)c2cncc(Br)c2)no1	6	8	nt	19%	-26	-2.2	0
Cc1ccccc1C(=O)Nc1cc(NC(=O)c2ccccc2C)cc(C(=O)O)c1	-34	18	0.3%	17%	-7	0.8	-16
COc1cccc(-c2cnc3c(NC(C)=O)cc(-c4ccccc4OC)cn23)c1	nt	-17	0.1%	nt	-13	-2.9	-17
CC(C)OC(=O)CC1=NC(=O)CS1	-2	8	-0.5%	-3%	-12	0.9	-3
CCCc1c(NC(=O)Nc2ccc(F)cc2)cnn1-c1ccccc1	-9	-10	0.7%	27%	-15	5.2	nt
C=CCSc1nc2ccccc2n1S(=O)(=O)c1ccc(Cl)cc1	nt	8	1.2%	nt	-3	4.1	-2

Single records (already shown).
`C#CCN1C(=O)C2(OCCO2)c2ccccc21` in the list: TRPV1 potentiator = 0; Six1-Eya2 blk = 0; PINK1 expr mod = 0.4%; Sfp inh = 5%; D2 PAM = 4; D2 agonist = 2.0; CtBP-E1A blk = 2
`CCCCn1nnnc1C(c1cc2ccccc2o1)N1CCN(CCN(C)C)CC1` (stereo not drawn) in the list: TRPV1 potentiator = nt; Six1-Eya2 blk = 7; PINK1 expr mod = -0.6%; Sfp inh = nt; D2 PAM = nt; D2 agonist = nt; CtBP-E1A blk = 2

Compound activity (PubChem)
